Assay outcomes as filed in PubChem BioAssay.
2A firefly: Primary qHTS Assay for Foot and Mouth Disease Virus Antivirals against NCGC Sytravon and CBC Compound Libraries: Firefly Luciferase Signal | Potency, µM (doses to about 57.5 µM), for inactives: at the highest dose signal change, negative = less light | 120,000 compounds, 0.23% hits | AID 1745856, 2022 | HEK cells with a luciferase reporter of 2A StopGo recoding; active = well fitted falling curve with a large enough effect; inconclusive = small, poorly fitted or top-dose-only effect; inactive = no such curve, though single readings can be large or run the other way; note: nearly all actives have a fitted effect of over 60% in size; overnight with compound
StopGo RLuc: Primary qHTS Assay for Foot and Mouth Disease Virus Antivirals against NCGC Sytravon and CBC Compound Libraries: Renilla Luciferase Signal | HEK cells with a luciferase reporter of 2A StopGo recoding | Potency, µM (titrated, usually from 57.5 µM), for the others: at the highest dose signal change, negative = less light | 120,000 compounds, 0.32% hits | AID 1745857, 2022; active means well fitted falling curve with a large enough effect; inconclusive means small, poorly fitted or top-dose-only effect; inactive means no such curve, though single readings can be large or run the other way; note: nearly all actives have a fitted effect of over 55% in size; overnight with compound
Starred values were filed as active, the others as inactive; ? = inconclusive; & = joins results of further samples; [ ] = remark or other dose. % is set by controls: 0 for no effect and ±100 for the full control effect; potency is the fitted concentration of half-maximal effect.

SMILES	2A firefly	StopGo RLuc
CC(C)(C)c1nc(CN2CCC(c3nc4ccccc4s3)CC2)no1	-26.3%	?
O=[N+]([O-])c1cccc2nc(/C=C/c3cccc(C(F)(F)F)c3)ccc12	79.2%[activator]	-2.4%
CC(=O)c1sc(Nc2ccc(C)c(C)c2)nc1C	311.4%[activator]	33.6%
COc1ccccc1OCC(=O)Nc1ccc2c(=O)c3cccc(Cl)c3oc2c1	25.8%	5.1%
COC(=O)c1ccc(CO/N=C/c2ccccc2Cl)cc1	?	4.7%
NC(=O)C(=O)N/N=C/C1CCCCC1	15.0%	3.4%
c1ccc(Nc2nc(NC3CCCCCC3)nc3c2cnn3-c2ccccc2)cc1	-8.5%	5.8%
CCOc1ccc(N2CC(C(=O)N(C)CC(=O)NCc3ccco3)CC2=O)cc1 (stereo not given)	-5.0%	-5.8%
CCOc1ccccc1NC(=O)Cn1c(=O)n(CCC(=O)NCc2ccc3c(c2)OCO3)c(=O)c2ccccc21	22.5%	58.6%[activator]
Cc1ccccc1NC1(c2nnnn2-c2ccccc2)CCCC1	34.2%[activator]	78.5%[activator]
CCCCCCCCCC(=O)Nc1ccc(C)c(C)c1	15.9%	-11.7%
CCc1ccc2c(c1)-c1ccccc1S(=O)(=O)N2CC(=O)N1CCCCC1	93.4%[activator]	187.2%[activator]
CC(C)CNCc1ccc(C(=O)O)cc1	0.0%	6.6%
O=C(Cc1ccsc1)N1CCC(c2nc3c(nnn3Cc3c(F)cccc3Cl)c(=O)[nH]2)CC1	2.4%	-2.8%
CCCCNC(=O)c1cccc(C(=O)NCCCC)n1	21.7%	19.0%
COc1ccc(C(=O)Nc2ccc3oc(-c4ccccc4F)cc(=O)c3c2)cc1OC	220.6%[activator]	5.1%
COc1ccc(C2Nc3ccccc3C(=O)N2c2ccccc2)cc1CN1CCOCC1 (stereo not given)	109.9%[activator]	32.7%[activator]
CCOc1ccccc1NC(=O)C(CC)Sc1nc2ccncc2[nH]1 (stereo not given)	-15.1%	27.3%
Cc1ccc(C)c(OCC(=O)Nc2ccc(Br)cc2C(=O)O)c1	?	?
CCOC(=O)c1cc(S(=O)(=O)N(C)CC(=O)Nc2ccc(F)c(Cl)c2)cn1C	-14.8%	-2.5%
CCOc1cccc(CC(=O)N2CCc3c([nH]c4ccccc34)C2c2ccccc2)c1OCC (stereo not given)	?	6.0%
Clc1ccc(-c2noc(-c3ccccc3)n2)cc1	250.3%[activator]	28.1%
COCCn1c(SCc2ccccc2)nc2c1c(=O)[nH]c(=O)n2C	9.3%	5.5%
COc1ccc(NC(=O)CSc2nnc(Cc3cccs3)n2Cc2ccco2)cc1	-4.1%	72.1%[activator]
CCCCNc1nc2c(S(=O)(=O)c3ccc(C)c(C)c3)nnn2c2ccsc12	-12.2%	73.8%[activator]
CCCN(Cc1cccs1)C(=O)Nc1ccc(OC)c(OC)c1	86.2%[activator]	-5.8%
Cc1nc(N2CCCC2)c2c(C(=O)N3CCN(c4ccccc4)CC3)c(C)oc2n1	-14.9%	2.0%
Cc1ccc(C)c(NC(=O)CCCn2nc(C)c3sc4ccccc4c3c2=O)c1	-10.5%	-8.2%
Cc1cc(=O)oc2cc(NC(=O)N(C)Cc3ccc(O)cc3)ccc12	110.4%[activator]	12.0%
CCOCCn1c(-n2nc(C)cc2C)nc2c1c(=O)[nH]c(=O)n2C	8.5%	3.4%
CCOc1ccc(-c2cc(C(=O)NCCCOC)c3ccccc3n2)cc1	31.3%[activator]	54.0%[activator]
CC(=O)c1ccc(NC(=O)C(C)Sc2nnc(-c3ccco3)n2-c2ccccc2)cc1 (stereo not given)	6.2%	19.5%
O=C(NCCc1csc2nc(-c3cccc(F)c3)nn12)c1ccc(Br)o1	-13.5%	11.1%
O=C(Nc1oc2ccc(Cl)cc2c(=O)c1-c1ccccc1)c1ccc([N+](=O)[O-])cc1	?	?
COc1ccc(CNC(=O)c2cc3cccc4c3n2CC(C)S4)cc1OC (stereo not given)	-3.5%	-1.0%
O=S(=O)(c1cccc2nsnc12)N1CCCCCC1c1ccccc1Cl (stereo not given)	9.4%	142.8%[activator]
CC(=O)N(Cc1cc2cccc(C)c2[nH]c1=O)C(C)C	-8.7%	-11.2%
Cc1ccc(-c2nc3ccccc3c(=O)n2CCN2CCOCC2)cc1	6.3%	-5.0%
O=C(NCc1ccccc1)C12CC3CCC(CC(C3)C1)C2	-3.0%	2.2%
CCc1ccc(NC(=O)c2ccc3c(O)c(S(=O)(=O)c4ccc(Cl)cc4)c(=O)[nH]c3c2)cc1	-8.7%	-5.5%
Cc1ccc(CNC(=O)c2ccc(Cl)c(-n3c(C)nc4cccnc43)c2)cc1	5.5%	24.9%
Cc1ccc(CN2CCC(CN)CC2)cc1	-9.6%	-7.8%
COc1ccc(Nc2ccc([N+](=O)[O-])c3cnccc23)cc1	14.4%	-2.3%
O=C(NCc1ccc2c(c1)OCO2)c1ccc2c(c1)N(Cc1cccc(Cl)c1)C(=O)c1ccccc1S2	-29.1%	0.9%
Cc1cc(C)c(NC(=O)CSc2ncc(CO)n2CC(=O)NC2CC2)c(C)c1	-6.7%	-7.4%
O=C(Nc1ccccc1)Nc1cccc(C(=O)NCC2CCCO2)c1 (stereo not given)	97.2%[activator]	39.0%[activator]
Cc1[nH]c2ccccc2c1C(C[N+](=O)[O-])c1ccc(C(F)(F)F)cc1 (stereo not given)	2.6%	8.5%
O=C(OCc1ccccc1Cl)c1ccc(-c2nnn(Cc3ccccc3Cl)n2)cc1	-6.3%	-8.9%
Cc1ccc(S(=O)(=O)c2cn(C)c3cc(N4CCCCC4)c(F)cc3c2=O)cc1	-0.2%	15.3%
Cc1ccc(NC(=O)c2cn(CCC#N)nc2-c2cccs2)cc1	39.0%[activator]	69.7%[activator]
CCOC(=O)c1[nH]c(C)c(C(=O)OCc2ccccc2)c1C	55.4%[activator]	41.5%[activator]
Cc1ccc(NC(=O)c2nc3ccccc3nc2N2CCOCC2)cc1Cl	-4.1%	-15.6%
Cc1ccc(C(=O)O)cc1NC(=O)c1ccco1	-1.6%	4.5%
COc1cc(CC(=O)Nc2ccc(C)c(S(=O)(=O)N3CCCCCC3)c2)cc(OC)c1OC	?	?
COc1ccc(-c2cc(C(=O)NCc3ccc(F)cc3)c3ccccc3n2)c(OC)c1	-1.4%	24.4%
Cc1ccc(C)c(CSc2nc(-c3ccccc3F)nc3c2Cc2c(CO)cnc(C)c2O3)c1	-24.4%	12.7%
COc1ccccc1CN(Cc1c(Cl)cccc1Cl)S(=O)(=O)c1ccc(Br)cc1	-22.0%	-9.4%
COc1cc2nc(CSCC(=O)NC3CC(C)(C)NC(C)(C)C3)[nH]c(=O)c2cc1OC	-1.8%	-5.6%
CN(Cc1ccccc1F)C(=O)CSc1nnc(COc2ccccc2Cl)n1C	-9.5%	58.4%[activator]
COCCn1c(C)cc(C(=O)Cn2cnc3scc(-c4ccc(C)s4)c3c2=O)c1C	76.8%[activator]	10.3%
Later entries
SMILES	2A firefly	StopGo RLuc
COc1ccc(C2(c3ccc(Cl)cc3)CCCCC2)cc1	-2.3%	9.1%
Cc1ccc(S(=O)(=O)CC(=O)Nc2sc3c(c2C#N)CCCC3)cc1	0.0%	-8.8%
Cc1ccccc1Cc1cnc(N)s1	0.0%	-9.8%[1.06 µM]
NCc1ccc(CN2CCc3ccccc32)cc1	17.2%	-1.5%
Cc1ccn2c(Nc3ccc(F)cc3)c(-c3ccc(C)o3)nc2c1	53.1%[activator]	4.1%
CCOc1ccc(NC(=O)CC2C(=O)N(c3ccccc3)C(=O)N2CCc2cccs2)cc1 (stereo not given)	-7.3%	180.1%[activator]
CCCOc1cccc(C2c3c(oc4ccc(F)cc4c3=O)C(=O)N2CCc2ccc(OC)cc2)c1 (stereo not given)	-19.1%	-6.2%
CCOc1ccc(NC(=O)CSc2nnc(-c3ccc(OCC)cc3)o2)cc1	3.1%	-9.0%
Cc1c(-c2nsc(NC(=O)c3ccccc3)n2)nnn1-c1ccc(C(F)(F)F)c(Cl)c1	32.7%[activator]	10.1%
O=S(=O)(c1ccc(F)c(F)c1)N1CCN(Cc2cccc3cccnc23)CC1	9.4%	-17.0%
CCOCCCNc1nc(-c2ccc3[nH]c(=O)oc3c2)cs1	171.6%[activator]	218.5%[activator]
Cc1ccc(C)c(CN2CCCN(CC(=O)N3CCCC3)S2(=O)=O)c1	24.1%	33.6%
O=c1c(Cl)c(N2CCCC(C(F)(F)F)C2)cnn1-c1ccccc1 (stereo not given)	0.0%	4.7%
CSc1ccccc1NC(=O)Cc1coc2cc(C)c(C)cc12	11.5%	0.0%
CCCCCCC(C)NC(=O)CCNC(=O)c1ccccc1 (stereo not given)	10.8%	19.2%
COc1ccc(N2C(=O)CN(Cc3ccccc3OC)[C@H]3CS(=O)(=O)C[C@H]32)cc1	-4.6%	-1.5%
Cc1ccc2c(C)c(CCC(=O)Nc3ccc(F)cc3C)c(=O)oc2c1	20.3%	14.1%
Cc1ccccc1Cn1c(NCCc2ccccc2)nc2c1c(=O)n(C)c(=O)n2C	6.0%	-1.7%
Cc1cc(C)c(NC(=O)COc2ccc(C(=O)Nn3c(C)ccc3C)cc2)c(C)c1	-3.9%	-11.3%
CN(Cc1ccccc1)S(=O)(=O)c1ccc2c(c1)OCCCO2	9.6%	91.7%[activator]

In the list so far, these contain a cyano group:
SMILES	2A firefly	StopGo RLuc
Cc1ccc(NC(=O)c2cn(CCC#N)nc2-c2cccs2)cc1	39.0%[activator]	69.7%[activator]
Cc1ccc(S(=O)(=O)CC(=O)Nc2sc3c(c2C#N)CCCC3)cc1	0.0%	-8.8%

(listing goes on)
SMILES	2A firefly	StopGo RLuc
CN(C(=O)Nc1cccc(OC(F)F)c1)C1CCCCC1	151.1%[activator]	5.3%
COc1cccc(-c2nc(CS(=O)(=O)CC(=O)NCCc3ccc(OC)c(OC)c3)c(C)o2)c1	12.1%&-4.6%	11.3%&-9.1%
Cc1ccc(Cl)cc1Nc1nn2c(=O)c3ccc(C(=O)NCc4ccc(F)cc4)cc3nc2s1	-12.2%	3.6%
CCOC(=O)C1=C(CN2CCN(c3cccc(Cl)c3)CC2)NC(=O)NC1c1ccc(Cl)cc1 (stereo not given)	-11.2%	-10.8%
Cc1ccc(Cn2ccnc2SCC(=O)Nc2nc3ccccc3s2)cc1	15.2%&35.8%	-13.2%&-1.4%
O=C(Nc1ccc(Cl)cc1)C1CC2CCC1C2 (stereo not given)	65.2%[activator]	14.7%
Cc1cc(C)cc(OCCN(C)C(=O)Cc2c[nH]c3ccccc23)c1	0.7%	10.8%
Cc1nn(CC(=O)Nc2cccc(O)c2)c(=O)c2ccccc12	-9.3%	-9.1%
CCOc1c(Br)cc(/C=C/C(=O)c2ccc(F)cc2)cc1OC	?	?
CCc1ccc(NC(=O)c2cc(C(C)=O)n3ccccc23)cc1	89.8%[activator]	15.4%
COc1ccc(Oc2coc3cc(OCC(=O)OCCC(C)C)ccc3c2=O)cc1	0.0%	7.7%
COc1ccc(CNC(=O)CCCn2c(=O)c3cccn3c3cccnc32)cc1	-17.5%	-13.6%
COc1ccc(-c2c(-c3ccc(OCCN4CCC(C)CC4)cc3O)n[nH]c2C)cc1	?	?
Cc1ccc(NC(=O)N(C)C(c2ccc(Cl)cc2)c2nccn2C)cc1 (stereo not given)	93.6%[activator]	-11.2%
O=C(Nc1nnc(S(=O)(=O)N2CCCCC2)s1)c1ccccc1Br	17.4%	0.0%
COc1ccccc1OCCn1c(NC(=O)c2ccccc2Cl)nc2ccccc21	42.7%[activator]	48.6%[activator]
CCC(C)NC(=O)Cn1c(=O)cc(-c2ccccc2)c2c(C)nn(C)c21 (stereo not given)	11.7%	18.1%
O=C(NCc1ccco1)c1cc2ccccc2oc1=O	28.1%	-9.4%
Cc1cccc(NC(=O)C(Cc2ccccc2)N2Cc3ccccc3C2=O)c1C (stereo not given)	-34.4%	102.5%[activator]
CCOc1ccccc1NC(=O)Cn1c(=O)ccc2cc(S(=O)(=O)N3CCC(C)CC3)ccc21	-8.6%	8.1%

Four successive entries from above, quoted:
SMILES	2A firefly	StopGo RLuc
Cc1ccc(S(=O)(=O)CC(=O)Nc2sc3c(c2C#N)CCCC3)cc1	0.0%	-8.8%
Cc1ccccc1Cc1cnc(N)s1	0.0%	-9.8%[1.06 µM]
NCc1ccc(CN2CCc3ccccc32)cc1	17.2%	-1.5%
Cc1ccn2c(Nc3ccc(F)cc3)c(-c3ccc(C)o3)nc2c1	53.1%[activator]	4.1%

Carrying on.
SMILES	2A firefly	StopGo RLuc
CC(C)CC(=O)Nc1nnc(S(=O)(=O)N(C)Cc2ccc(Cl)cc2)s1	-15.9%	-12.3%
Cc1cc(C)cc(NC(=O)CCCN2C(=O)COc3ccc(C)cc32)c1	28.0%	7.9%
Cc1nc(-c2ccccc2)nc2sc3c(=O)[nH]cnc3c12	17.6%	1.1%
Fc1ccc(CCNC(=S)Nc2ccc(Nc3ccccc3)cc2)cc1	?	?
CC1CCN(c2ncnc3c2cnn3-c2ccc(F)cc2)CC1	183.4%[activator]	6.8%
CCOc1ccc(C2=NC(c3ccncc3)=Nc3ccc(C)cc3N2)cc1OCC	0.6%	4.8%

Molecules shown so far containing a COOH group, in the order listed:
SMILES	2A firefly	StopGo RLuc
CC(C)CNCc1ccc(C(=O)O)cc1	0.0%	6.6%
Cc1ccc(C)c(OCC(=O)Nc2ccc(Br)cc2C(=O)O)c1	?	?
Cc1ccc(C(=O)O)cc1NC(=O)c1ccco1	-1.6%	4.5%

Only part of the results is shown (hit frequency here may not be typical).
